Hsc70 – small molecules displacing fluorescent ligand from Hsc70 – biochemical, fluorescence polarization, primary screen (AID 568); Hsc70 fluorescence polarization, probe displacement; higher % means a stronger effect; strong numbers were not always called active; one-dose displacement, % at 20 µM; IC50 in µM for titrated hits; 83,000 tested, under 10 active;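 active = displacement above 50% without optical interference and an IC50 on retest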;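 also: ATPase domain with a fluorescein-tagged ATP probe; 0% = vehicle and 100% = excess ADP; read after one hour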
MT1-MMP promoter – MT1-MMP gene expression reporter suppression – cell-based, luciferase reporter, luminescence (AID 618). MT1-MMP promoter luciferase reporter cells, luminescence. calls from a first round at 10 µM; hits with a dose series show EC50 in µM. actives 0.62% (n = 87,000);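 active = over half of the reporter light lost at 10 µM or EC50 under 50 µM; inactive = the rest and hits that failed the dose series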;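 also: actives suppress MT1-MMP promoter-driven transcription so potencies describe inhibitors; HT1080 fibrosarcoma cells; overnight exposure; toxic or luciferase-blocking compounds were not removed from the actives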
WNV protease inh – blocks West Nile virus NS2B-NS3 protease activity; P06935; WNV NS2B-NS3 protease, fluorogenic substrate Ex360/Em465; active compounds read low; z-score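 (tested at a level between 10 and 100 µM)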; actives 0.18% (n = 65,000); AID 577;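 active = z-score at -3 or under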;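 also: score is relative to mean and spread of the compound wells of a plate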
Target sequence (P06935 1371-1501 limits assumed): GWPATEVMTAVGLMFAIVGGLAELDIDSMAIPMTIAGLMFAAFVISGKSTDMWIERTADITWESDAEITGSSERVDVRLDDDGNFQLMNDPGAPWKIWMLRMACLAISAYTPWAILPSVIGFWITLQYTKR
Target sequence (P06935 1502-1679 limits assumed): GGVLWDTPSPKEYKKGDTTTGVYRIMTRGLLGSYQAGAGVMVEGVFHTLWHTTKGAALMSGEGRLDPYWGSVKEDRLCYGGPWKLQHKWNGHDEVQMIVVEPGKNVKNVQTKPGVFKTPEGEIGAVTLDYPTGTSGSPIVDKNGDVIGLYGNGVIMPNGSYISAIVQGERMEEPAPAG
* = called active by the depositor; i = inactive; . = not tested or not shown.

Order of values – Hsc70	MT1-MMP promoter	WNV protease inh
O=C(OC(C(=O)NCC1CCCO1)c1ccccc1F)c1ccco1 (centres undefined)
    8.4%	i	-0.56
CC(=O)c1cccc(NC(=O)CN(c2ccc(C)cc2)S(=O)(=O)c2cccc3nonc23)c1
    -7.4%	i	-0.17
CCOC(=O)c1c(NC(=O)CN(CC)CC)sc2c1CCC2
    -0.6%	i	-0.3
COc1ccccc1/C=C/C(=O)NCC(=O)N/N=C/c1cc(Br)ccc1OC
    -5.9%	i	.
O=c1c2ccccc2nc(SCc2cn3ccsc3n2)n1-c1ccccc1F
    -1.7%	i	0.14
CCCCOCCCNC(=O)c1ccc(OCC)cc1
    -6.2%	i	.
CCCn1c(C)cc(/C=C(\C#N)C(=O)OCC(=O)NC(=O)NC(C)(C)C)c1C
    10%	i	.
COc1cc(C(=O)NCc2ccccn2)ccc1OCc1c(C)noc1C
    -1.2%	i	.
O=C(CN(C1CC1)S(=O)(=O)c1ccc(S(=O)(=O)N2CCCCCC2)cc1)Nc1ccccc1
    -2.3%	i	-0.78
COc1ccc(-c2noc(CCC(=O)O)n2)cc1
    -2.3%	i	.
COc1ccccc1NC(=O)CSc1nc(O)c(Cc2ccccc2)c(=O)[nH]1
    -4.1%	i	.
N#CC1(C#N)COC23CCCCC2C1(C#N)C(=N)O3 (centres undefined)
    -1.5%	i	.
COc1cccc(OC)c1C(=O)N1CCN(c2ccccn2)CC1
    1.9%	i	1.5
CC1CCCCN1C(=O)Cn1c(=O)n(CCC(=O)NCc2ccco2)c(=O)c2sccc21 (centres undefined)
    -1.3%	i	0.71
CCOC(=O)c1c(C)oc2ccc(NS(=O)(=O)c3ccc4c5c(cccc35)C(=O)N4)cc12
    -4.4%	i	0.11
CCCOC(=O)NC(CC)COC(=O)Nc1cc(C)ccc1C (centres undefined)
    -1.0%	i	0.15
COC(=O)c1ccc(NC(=O)N2CCC(O)(c3cccnc3)CC2)cc1
    -0.7%	i	.
Cc1ccc(NCc2nnc(SCC(=O)c3ccccc3)n2Cc2ccco2)c(C)c1
    -7.2%	i	0.4
CN(Cc1ccco1)S(=O)(=O)c1ccc2c(c1)CCN2C(=O)CCC(=O)O
    -0.4%	i	.
CCOC(=O)CN1CC23C=CC(O2)C(C(=O)N2CCN(c4ccc(F)cc4)CC2)C3C1=O (centres undefined)
    -4.8%	i	-0.28

Structures above containing a cyano group:
Order of values – Hsc70	MT1-MMP promoter	WNV protease inh
CCCn1c(C)cc(/C=C(\C#N)C(=O)OCC(=O)NC(=O)NC(C)(C)C)c1C
    10%	i	.
N#CC1(C#N)COC23CCCCC2C1(C#N)C(=N)O3 (centres undefined)
    -1.5%	i	.

More records follow.
Order of values – Hsc70	MT1-MMP promoter	WNV protease inh
O=C(Cn1cc2c(n1)CCCCC2)N1CCc2ccccc2C1
    1.1%	i	2
Cc1nc2ccc(NS(=O)(=O)c3c(C)c(C)cc(C)c3C)cc2s1
    -1.3%	i	.
Cc1cc(C)c(NC(=O)C2CCCN2C(=O)NC2CCCCC2)c(C)c1 (centres undefined)
    3.6%	i	.
Cc1cccc(C)c1NC1=NC(=S)N(c2ccccc2)C12CCOC(C)(C)C2 (centres undefined)
    -0.7%	i	.
CCN(CC)S(=O)(=O)c1ccc(NC(=O)c2ccccn2)cc1
    2.4%	i	0.72
CCOc1ccc(N(CC(=O)NC2CCCC2)C(=O)CCCC(=O)Nc2ccccn2)cc1
    3.3%	i	.
O=C(Nc1ccc2c(c1)nc1n2CCOC1)C1CCCCC1
    7.0%	i	1.2
CC1CN(C(=O)c2cnn3c(C(F)F)cc(-c4ccccc4)nc23)CC(C)O1 (centres undefined)
    -7.4%	i	0.8
C=CCOC(=O)C1CC=CCC1C(=O)Oc1ccc(F)cc1F (centres undefined)
    -0.6%	i	-0.5
Cc1ccc2nc(NC(=O)COC(=O)c3ccco3)sc2c1
    -7.7%	i	-0.72
CCC(=O)c1cc2c(cc1NC(=O)c1ccccc1)OCCO2
    4.5%	i	.
CCOC(=O)N1CCC(=C(C#N)C(=O)Nc2cc(OC)ccc2OC)CC1
    3.3%	i	0.6
O=C(Nc1nccs1)C1CCCN1S(=O)(=O)c1ccc(Cl)cc1 (centres undefined)
    4.9%	i	0.86
Cc1ccsc1/C=N/n1cnc2sc(C)c(C)c2c1=O
    -6.0%	i	0.03
CC1CN(c2nc3c(c(=O)n(C)c(=O)n3C)n2Cc2c(Cl)cccc2Cl)CC(C)O1 (centres undefined)
    -3.3%	i	-0.8
CCn1c(SCC(=O)c2ccc(O)c(O)c2)nnc1-c1ccccc1OC
    1.2%	i	-0.26
CC(C)CCn1c(SCC#N)nc2c(sc3ccccc32)c1=O
    -0.1%	i	0.74
CCS(=O)(=O)N1CCC(C(=O)N2CCN(c3ccccc3)CC2)CC1
    0.9%	i	-0.86
Cc1nccc2[nH]c(=O)c(C(=O)NCCCN(C)C3CCCCC3)cc12
    -7.6%	i	-0.59
Cc1ccc(C(CCN)c2ccco2)cc1 (centres undefined)
    -8.2%	i	-0.99
O=C(O)C(Cc1c[nH]c2ccccc12)NS(=O)(=O)c1cccc2nsnc12 (centres undefined)
    -8.4%	i	-0.29
CCOC(=O)C1C(=O)C=C(c2ccc(NS(C)(=O)=O)cc2)CC1c1ccco1 (centres undefined)
    0.2%	i	.
CN(C)c1nc(N/N=C\c2ccc(Cl)c([N+](=O)[O-])c2)nc(Nc2ccc(F)cc2)n1
    3.4%	i	.
Cc1ccc(NC2c3ncccc3C(=O)N2Cc2ccc(F)cc2)cc1 (centres undefined)
    -4.9%	i	-0.4
Cc1cccc(OCc2n[nH]c(=S)n2C2CCCCC2)c1
    -32%	i	.
CCCC(NC(=O)c1ccccc1)c1nc2ccccc2n1Cc1ccc(C(=O)OC)o1 (centres undefined)
    -1.9%	i	-0.12
O=c1[nH]c(=O)n([C@H]2C[C@H](O)[C@@H](CO)O2)cc1C(F)(F)F
    -3.8%	i	.
CN(CC(=O)Nn1cnnc1)S(=O)(=O)c1cc(Cl)ccc1Cl
    2.1%	i	-0.05
O=C(NC1CCCCC1)C1CCN(S(=O)(=O)c2cccc3cccnc23)CC1
    -8.4%	i	1
CCOc1c(C(=O)CC)cc2c(C)cc(=O)oc2c1C
    -3.2%	i	.
Cc1nc(SCC(=O)CC(=O)OC(C)C)c(C#N)c(C)c1C
    0.2%	i	-0.54
Cc1ccc2[nH]c3c(=O)n(CCCN4CCN(C)CC4)cnc3c2c1
    -3.7%	i	0.08
CCn1cc(/C=N/O)c(C)n1
    4.2%	i	-0.75
COc1ccc(-c2nnc3ccc(SCC(N)=O)nn23)cc1OC
    0.0%	i	0.38
O=C(Nc1ccc(Nc2ccccc2)cc1)c1ccco1
    4.0%	i	0.89
O=c1oc2ccccc2n1CCn1c2ccccc2c2nc3ccccc3nc21
    0.9%	i	0.3
O=C1CCCc2c1nc(-c1ccccc1)n2O
    -2.0%	i	0.64
Cc1nnc(N2CCOCC2)c2ccccc12
    5.1%	i	-1
CCOc1ccc(-c2nnc3sc(COc4ccccc4)nn23)cc1
    -0.3%	i	-0.26
Cc1cc(Cl)ccc1OCC(=O)N1CCCCC1
    0.5%	i	0.15

A run of entries from the list above:
Order of values – Hsc70	MT1-MMP promoter	WNV protease inh
O=c1oc2ccccc2n1CCn1c2ccccc2c2nc3ccccc3nc21
    0.9%	i	0.3
O=C1CCCc2c1nc(-c1ccccc1)n2O
    -2.0%	i	0.64
Cc1nnc(N2CCOCC2)c2ccccc12
    5.1%	i	-1
CCOc1ccc(-c2nnc3sc(COc4ccccc4)nn23)cc1
    -0.3%	i	-0.26
Cc1cc(Cl)ccc1OCC(=O)N1CCCCC1
    0.5%	i	0.15

Next section:
Order of values – Hsc70	MT1-MMP promoter	WNV protease inh
O=C1c2ccccc2C(=O)N1CC(O)CN1CCOCC1 (centres undefined)
    -4.4%	i	.
CCOc1ccc(NC(=O)CN2CCN(CC(=O)Nc3ccc4c(c3)OCCO4)CC2)cc1
    -1.0%	i	1.2
CCc1c(C)nc2ncnn2c1N1CCC(C(=O)N2CCN(c3ccc(F)cc3)CC2)CC1
    2.2%	i	-0.61
Nc1c(S(=O)(=O)c2ccccc2)c2nc3ccccc3nc2n1Cc1ccco1
    15%	i	0.42
CCCCC1CC(CSc2ncn[nH]2)OC1=O (centres undefined)
    12%	i	-0.97
Cc1cc2nc(-c3cccc(NC(=O)c4ccc(Br)o4)c3C)oc2cc1C
    -2.6%	i	-0.34
CN(C)/C=N/c1c(C#N)cnn1-c1ccccc1
    -2.4%	i	0.13
CCOC(=O)N1CCN(C(=O)c2ccc3c(=O)n(Cc4ccccc4)c(=S)[nH]c3c2)CC1
    -9.3%	i	1.5
CCc1c(C)nc2c(C#N)c(C)[nH]n2c1=O
    -1.3%	i	-0.06
COc1cc2c(cc1O)C(SC)=NC(C)(C)C2
    2.6%	i	1.5
COC(=O)c1ccc(NC(=O)Nc2ccc(F)cc2)cc1
    0.7%	i	0.07
CCOc1ccc(NC(=O)CN2C(=O)C3CCCN3C2=O)cc1 (centres undefined)
    -2.5%	i	0.72
CC(=O)Nc1ccc(S(=O)(=O)N(C2=NCC(C)S2)c2ccccc2)cc1 (centres undefined)
    0.9%	i	-0.55
Cc1cc(C(=O)N(C)C)sc1-c1ccccc1
    1.3%	i	.
c1ccc(CSCCc2ccncc2)cc1
    -4.2%	i	.
Cc1ccc(CS(=O)(=O)CCC(=O)NCc2ccccn2)cc1
    -7.4%	i	-1.4
Cc1ccc(OCC(=O)Nc2cccc(O)c2)cc1C
    1.0%	i	1.3
Cc1ccc(-n2nc3c(c2NC(=O)c2ccc(OC(C)C)cc2)CS(=O)C3)cc1 (centres undefined)
    1.9%	i	-0.01
CCCNCc1cc(OCC)c(OCC(N)=O)cc1Br
    -0.9%	i	0.0058
COc1ccccc1N1CCN(C(=O)CC2NC3CCCCC3NC2=O)CC1 (centres undefined)
    2.5%	i	.
CCOc1ccc(C(=O)Nc2ccc(N3CCCC3)cc2)cc1
    -17%	i	-0.92
O=C(CC1N=C2c3ccccc3N=C(SCc3ccc(F)cc3)N2C1=O)NCc1ccco1 (centres undefined)
    1.7%	i	1.8
O=S(=O)(Nc1nc2ccccc2nc1Nc1ccc2c(c1)OCCO2)c1cccs1
    -26%	i	-0.29
Cc1nn(Cc2ccc(Cl)cc2Cl)c(C)c1NC(=O)c1nn(C)cc1Cl
    9.2%	i	.
COc1ccccc1C1CC(c2ccc(Cl)cc2Cl)Nc2nc(N)nn21 (centres undefined)
    4.1%	i	0.98
CC1=C(C(=O)OCCOC(C)C)C(c2cc3c(cc2Br)OCO3)C2=C(CCCC2=O)N1 (centres undefined)
    1.4%	i	1.4
COc1ccc(N2CCN(C(c3cccc(OC)c3OC)c3nnnn3C3CCCC3)CC2)cc1 (centres undefined)
    2.7%	i	-0.77
Cc1sc2nc(SCC(=O)NCc3ccco3)n(C)c(=O)c2c1C
    -6.6%	i	-0.56
COc1ccc(NC(=O)c2c(SC)nsc2SC)cc1
    -11%	i	2.3
COc1ccc(C(=O)OC(C)CN2CCN(C)CC2)cc1OC (centres undefined)
    -0.5%	i	0.15
COc1ccc(NC(=O)N2CCCC2C(=O)Nc2ccc(C)cc2)cc1 (centres undefined)
    -0.3%	i	-0.15
CCOC(=O)N1CCN(S(=O)(=O)c2cc(Cl)ccc2Cl)CC1
    0.1%	i	0.49
CCc1nnc(NC(=O)c2ccc(-c3ccccc3Cl)o2)s1
    0.6%	i	.
O=C(c1ccco1)N1CCCSC1=Nc1ccccc1
    5.7%	i	0.34
Cn1c(-c2ccc3ccccc3n2)nc2cnccc21
    1.8%	i	-0.34
CC(C)CC(NC(N)=O)C(=O)OCC(=O)NC(=O)NC1CCCC1 (centres undefined)
    4.5%	i	-0.66
COC(=O)C(C(=O)OC)C(C)C(C(=O)OC)C(=O)OC
    2.5%	i	.
COC(=O)c1nn(-c2ccccc2)ccc1=O
    -3.2%	i	.
O=C(Nc1ncc2c(n1)CC(c1ccco1)CC2=O)c1ccc(Cl)cc1 (centres undefined)
    -11%	i	1.2
O=C(Cn1c(-c2cncs2)nc2ccccc21)NCc1ccccc1
    2.3%	i	.
Cc1ccc(C)c(Cn2nnc3c(=O)[nH]c(C4CCCN(C(=O)CC(C)C)C4)nc32)c1 (centres undefined)
    1.2%	i	-1.3
O=C(OCc1nnc(-c2ccc(Cl)cc2)o1)c1ccc(=O)n(Cc2ccccc2)n1
    -3.3%	i	-0.16
CN1CCc2c(sc3c2c(=O)n(-c2ccccc2)c2nnc(SCc4ccc(F)cc4)n32)C1
    -6.0%	i	0.26
Cn1c(=O)c2[nH]c(CN(Cc3ccccc3)Cc3ccccc3)nc2n(C)c1=O
    0.0%	i	0.02
O=c1cc(-c2ccccc2)nc(N2CCN(Cc3ccccc3)CC2)[nH]1
    -4.3%	i	2.1
O=C(NCc1ccco1)c1ccc(S(=O)(=O)c2cccc(S(=O)(=O)N3CCOCC3)c2)cc1
    3.5%	i	1.4
c1ccc(C2=NCCCN2)cc1
    -6.1%	i	0.01
